Source: PubChem
Biofilm kill mix = mixtures killing C. albicans biofilm | C. albicans biofilm persisters + clotrimazole, fluorescence viability; primary screen in compound mixtures of four per well | inhibition, % at 7.6 µM | actives 0.02% (n = 120,000) | AID 1242;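 active means inhibition above 30.3% in the primary screen of four-compound pools, then above 30% when the compound was retested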;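 further: compounds exposed to preformed 24 h biofilms for 48 h; the number belongs to the whole pool; some results filed as inactive read as strong as hits; inactives centre near 12; 0% = biofilm with clotrimazole alone and 100% = kill control; retested singly at about 60 µM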
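Probe or stimulus – Clotrimazole 50 µg/mL co-treatment · System – C. albicans biofilms · Schedule – 24 h biofilm formation, then 48 h compound exposure, 37 °C · Evaluation – percent inhibition of biofilm viability · Technique – 2-h Alamar Blue fluorescence, 535/590 nm excitation/emission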
* hit, by the source's call. The list is partial. The share of hits here may be higher or lower than overall.

SMILES	Biofilm kill mix
CCC(C)[C@H](NC(=O)NC(C)C)C(=O)O (stereo not given in full)	25.1
CCCC(CCC)c1nc2ccncc2[nH]1	7.9
CCOC(=O)N1CCc2c(sc(NC(=O)CN(CC)CC)c2C#N)C1	14.7
COc1cc(O)c(C(CCN2CCOCC2)c2ccc(N(C)C)cc2)c(OC)c1 (stereo not given)	13.0
Cc1ccc(S(=O)(=O)N2CCCOC2CNC(=O)C(=O)NC2CCCCC2)cc1 (stereo not given)	6.9
Cc1cc(NC(=O)COC(=O)[C@@H](NS(=O)(=O)c2ccc(Br)cc2)C(C)C)no1	10.1
COc1cc(C)c(Cl)cc1S(=O)(=O)N1CCCC1	8.2
CC(C)(C)n1cn[nH]c1=S	14.4
O=C(O)c1ccc2c(c1)S(=O)(=O)N=C1CCCCCN12	11.1
COc1ccc2nc(N3C(=O)CC(C(C)c4ccccc4)C3=O)sc2c1 (stereo not given)	17.1
CC(Oc1ccc(Cl)cc1)C(=O)NCCN1C(=O)S/C(=C\c2cccnc2)C1=O (stereo not given)	19.9
Cc1ccc(C2CC(=O)NC(SCc3ccccc3)=C2C#N)cc1 (stereo not given)	11.8
O=C(Nc1ccc(OC(F)(F)F)cc1)c1ccc2ccccc2n1	19.2
CCC(=O)c1ccc(OCC(=O)OCC(=O)Nc2sccc2C(N)=O)cc1	11.0
CCn1c2ccccc2c2nnc(SCC(=O)N(C)C3CCS(=O)(=O)C3)nc21 (stereo not given)	8.2
COc1ccc(-c2csc(NC(=S)NC(=O)c3ccccc3)n2)cc1Br	18.5
COc1ccccc1C(=O)NNC(=O)c1ccc(NC(=O)c2ccccc2)cc1	2.5
CC(C)Cc1nnc(NC(=O)Cc2ccc([N+](=O)[O-])cc2)s1	8.9
COC(=O)c1c(NC(=O)c2ccccc2[N+](=O)[O-])sc2c1CC(C)(C)NC2(C)C	15.8
NC(=O)c1cc(C(=O)c2ccc(Cl)cc2Cl)c[nH]1	17.0
COC(=O)c1cc(=O)n(-c2ccc(F)cc2)c(=Nc2ccc(F)cc2)s1	17.0
O=C(Nc1cccc(F)c1)C1CCN(C(=O)c2ccc(Cl)cc2)CC1	10.4
S=C1NC2(CCCC2)N=C1c1ccccc1	7.7
CCOC(=O)c1sc(N=NC2=C(O)CCCC2=O)c(C(=O)OCC)c1C	3.4
CCOC(=O)C1(Cc2cccc(OC)c2)CCN(C/C=C/c2ccc(OC)cc2)CC1	14.2

Going on with the list.
SMILES	Biofilm kill mix
CC(=O)N1CC=CC1(C)C(=O)NCc1cc(F)cc(C(F)(F)F)c1 (stereo not given)	9.0
CCN(CC)C(C(=O)Nc1ccc2c(c1)OCO2)c1ccccc1 (stereo not given)	3.9
COC(=O)CCCC1=CC2=CC(=O)C(C)(OC(=O)C3CCCC3)C(=O)C2=CO1 (stereo not given)	13.5
COc1ccc(OC)c(/C=C2\SC(=S)N(C(C(=O)O)c3ccccc3)C2=O)c1 (stereo not given)	-0.7
CCCCC#Cc1ccc(C(=O)NNC(=O)Nc2cc(Cl)cc(Cl)c2)o1	23.3
COc1ccc(/C=C/C(=O)NC2=NCCS2)cc1OC	-0.8
CCCn1nnnc1SCC(=O)Nc1sc(C)c(C)c1C#N	14.5
CC(=O)OCCNc1nc(-c2ccccc2)nc2ccccc12	20.2
Cn1cc(CN2CCc3sccc3C2)c(-c2ccccc2F)n1	13.6
CCC1C(C#N)=C(N)OC2=C1C(=O)CC(C)(C)C2 (stereo not given)	11.1
C=CCNC(=S)N1CCN(S(=O)(=O)c2ccc(C)cc2)CC1	25.3
O=C(NCc1ccccn1)c1ccc(Cn2c(=S)[nH]c3ccc(Br)cc3c2=O)cc1	11.8
CN1CCN(Cc2nc3ccccc3c(=O)n2CC#N)CC1	11.8
Cc1ccc(C(=O)Nc2ccc(C)c(S(=O)(=O)Nc3ccccc3Cl)c2)s1	12.2
O=S(=O)(Nc1ccccn1)c1cnc(Cl)c(Br)c1	17.8
Cn1cnnc1SCC(=O)Nc1nc(-c2ccc(F)cc2)cs1	11.3
CCCCNS(=O)(=O)c1ccc2nc(-c3cccnc3)cc(C(=O)NC3CC3)c2c1	-1.6
Cc1cccc(C(=O)N/N=C2/SCC(=O)N2Cc2ccccc2)c1	28.0
CC1=CC(C)C(/C=N/N=C(N)N)C(C)C1 (stereo not given)	14.7
Cc1ccc(-n2nc3c(SCCN4CCOCC4)nnc(C)c3c2C)cc1	15.3
CCC(=O)Oc1c(C(=O)CC)cc2c(C)cc(=O)oc2c1C	15.3
O=C(Nc1ccccc1Cl)Oc1ccc(-c2ccccc2)cc1	19.7
Cc1ccccc1C([O-])=Nc1ccc[n+](-c2nc3ccccc3nc2NS(=O)(=O)c2ccccc2)c1	19.1
Cc1c(N2C(=O)CSC2=S)c(=O)n(-c2ccccc2)n1C	13.0
CN(C(=S)NC(=O)c1ccccc1)c1c(N)n(Cc2ccccc2)c(=O)[nH]c1=O	9.2

Part of the list above in order of SMILES length, lowest first.
SMILES	Biofilm kill mix
CC1=CC(C)C(/C=N/N=C(N)N)C(C)C1 (stereo not given)	14.7
CN1CCN(Cc2nc3ccccc3c(=O)n2CC#N)CC1	11.8
Cn1cc(CN2CCc3sccc3C2)c(-c2ccccc2F)n1	13.6
CCN(CC)C(C(=O)Nc1ccc2c(c1)OCO2)c1ccccc1 (stereo not given)	3.9
CC(C)Cc1nnc(NC(=O)Cc2ccc([N+](=O)[O-])cc2)s1	8.9
CC(=O)N1CC=CC1(C)C(=O)NCc1cc(F)cc(C(F)(F)F)c1 (stereo not given)	9.0
CC(Oc1ccc(Cl)cc1)C(=O)NCCN1C(=O)S/C(=C\c2cccnc2)C1=O (stereo not given)	19.9

Exported in CSV form: entries from further up
Compound,Biofilm kill mix
Cc1cccc(C(=O)N/N=C2/SCC(=O)N2Cc2ccccc2)c1,28.0
COc1ccc(-c2csc(NC(=S)NC(=O)c3ccccc3)n2)cc1Br,18.5

(next part)
SMILES	Biofilm kill mix
Cc1cc(CO)nn1-c1ccc([N+](=O)[O-])cc1	22.0
O=C(CN1c2ccccc2Sc2ccccc21)N/N=C/c1ccc(Cl)cc1Cl	11.0
O=C(NCc1csc(-c2cccs2)n1)C1CCCCC1	17.6
CC(C)(C)OC(=O)N1CC(O)CC1C(=O)OCC(=O)c1ccc(-c2ccccc2)cc1 (stereo not given)	11.5
O=C(Cc1cccs1)NC(c1ccccc1)c1ccccc1	2.5
O=Nc1c(O)[nH]c2ccc(Cl)cc12	5.3
COCc1c(Br)c(C)nc(OCC(=O)N/N=C/c2ccco2)c1C#N	12.2
COc1ccc(NC(=O)c2cccnc2N2CCOCC2)cc1	14.6
O=C1COc2ccc(N3C(=O)c4ccccc4C3=O)cc2N1	1.4
O=C(CS(=O)CC(=O)N(c1ccccc1)C(C(=O)NC1CCCCC1)c1ccco1)Nc1ccc(F)cc1 (stereo not given)	10.1
Cc1sc(NC(=O)CSc2nnc(C(C)C)n2C)c(C#N)c1C	9.1
COc1ccc(CNCc2cn(-c3cccc(F)c3)nc2-c2ccc(C)o2)cc1	18.4
O=C(NNC(=S)NCc1ccco1)c1cccs1	-9.5
O=C(CCCn1c(=S)[nH]c2cc3c(cc2c1=O)OCO3)NCc1ccco1	8.7
CC1(C)Cc2ccccc2-c2nnc(C(F)(F)F)n21	10.1
c1ccc(-n2nnnc2Sc2ncnc3sc4c(c23)CCCC4)cc1	8.3
O=C(Nc1ccc(-c2cn3c(n2)SCC3)cc1)c1ccco1	16.7
COc1cccc(OC)c1OCCCCN1CCC(Cc2ccccc2)CC1	9.8
CCCCNC(=O)CN(c1cccc(Br)c1)S(C)(=O)=O	18.1
c1coc(-c2ccnc3nc(-n4cccc4)nn23)c1	14.8
Cn1nc(N)c2c(-c3ccccc3)c(C#N)c(N)nc21	12.2
C#CCOCCOCCOCCNc1nc(N2CCN(C(=O)[C@H](Cc3ccc(O)cc3)n3cc([C@@H](N)CC(C)C)nn3)CC2)nc(N2CCN(C(=O)[C@H](Cc3ccc(O)cc3)n3cc([C@@H](N)CC(C)C)nn3)CC2)n1	1.0
O=C(N1CCN(c2ccccc2)CC1)C1(c2cccs2)CCOCC1	18.9
CN(C)CCCN(C(=O)c1ccc(Br)s1)c1nc2cc3c(cc2s1)OCO3	10.1
CC1CCCC(C)N1S(=O)(=O)c1ccc(S(=O)(=O)N2CCOCC2)cc1 (stereo not given)	12.4

Next results.
SMILES	Biofilm kill mix
COc1cccc(NC(=O)COC(=O)c2c(F)cccc2Cl)c1	18.8
Cc1nc2ccccn2c1P(=O)(N1CCCCC1)N1CCCCC1	5.0
Cc1cc(C(=O)COC(=O)c2ccc[nH]c2=O)c(C)n1C	9.5
O=C(CSc1nc2cc([N+](=O)[O-])ccc2n1-c1ccc(F)cc1)NC1CCS(=O)(=O)C1 (stereo not given)	15.8
OCCNc1nc(N2CCOCC2)nc(N2CCOCC2)n1	2.8
CCCCOc1ccc(Nc2nc(C)cc(C)c2C#N)cc1	15.2
Cc1cccc(C)c1NC(=S)NCCc1ccc(O)c(O)c1	12.0
CCOc1ccc(/C=N/NC(=O)c2ccc(CSc3nc4ccccc4[nH]3)cc2)cc1	11.9
CCOc1cc(S(=O)(=O)n2ccnc2)ccc1Br	5.1
Cc1cccc(OCCC(=O)N(C)CC(=O)Nc2cccc3ccccc23)c1	7.2
Fc1ccc(-c2cc(C(F)(F)C(F)F)[nH]n2)cc1	26.8
O=C(/C=C/c1ccccc1[N+](=O)[O-])Nc1ccccc1	14.7
Oc1oc(-c2ccccc2Br)nc1/C=N/c1ccccn1	15.8
CC(C)n1nc(C(=O)Nc2nnc(C3CC3)s2)c2ccccc2c1=O	3.5
Nc1nn(-c2ccccc2)nc1C(=O)OCc1ccccc1F	6.2
S=C(Nc1ccc(Cl)cc1Cl)N1CCCCC1	7.5
CCCCCCC(=O)Cc1cc(OC)c(OC)cc1C=C(C(=O)OCC)C(=O)OCC	19.2
CCN(CC)CCOC(=O)c1cccc2c1-c1ccccc1C2O (stereo not given)	11.7
CC(=O)c1c(O)cc(C(C)C)n(-c2ccccc2)c1=O	7.4
NCc1nc(-c2ccc(Cl)cc2)no1	13.3
CCOC(=O)CSc1nc(C)[nH]c1[N+](=O)[O-]	11.5
N#CC1=C(N2CCOCC2)/C(=C\c2ccccc2)CC1	17.6
O=C(c1ccc(F)cc1)N1CCN(c2ccc(N3CCOCC3)nn2)CC1	21.9
CCOCc1nnc(NC(=O)c2cc(OC)c(OC)c(OC)c2)s1	18.8
CCCC(=O)Nc1ccc(C(=O)Nc2nnc(COCC)s2)cc1	7.8

(more compounds)
SMILES	Biofilm kill mix
CC(C)c1nc(SCC(=O)Nc2ccc(N3CCOCC3)cc2)c2ccccc2n1	15.4
Cc1ccnc(NS(=O)(=O)c2ccc(NC(=O)c3c(-c4ccccc4Cl)noc3C)cc2)n1	11.8
CCN(CC)CCCNC(=O)c1sc2ncn(CC(=O)Nc3ccc(C)c(Cl)c3)c(=O)c2c1C	11.9
COc1cccc2c1OCC(C(=O)O)C2 (stereo not given)	-5.4
S=C(Nc1ccccc1)N1CCCCCCC1	6.8
CCSc1nnc(NC(=O)Cn2cnc3c2c(=O)n(C)c(=O)n3C)s1	14.9
CC(=O)Nc1ccc(C)c(NC(=S)Nc2ccc(F)cc2)c1	4.6
COc1ccccc1NC(=O)/C(C#N)=C/c1cc([N+](=O)[O-])ccc1N1CCCC1	8.8
Cc1ccc(S(=O)(=O)c2nc(-c3cccs3)oc2NCCCN(C)C)cc1	-2.9
CC1(C)CC(Cc2nc(=S)[nH][nH]2)C(=O)O1 (stereo not given)	17.0
Cc1ccc2nc(-c3ccc(SCC(=O)Nc4nnc(C)s4)nc3)[nH]c2c1	12.1
CC(=O)c1ccc(NC(=O)N2CCc3ccccc3C2)cc1	15.1
NS(=O)(=O)c1ccc(CCNC(=O)C2CCN(S(=O)(=O)c3ccccc3)CC2)cc1	16.5
O=C(/C=C/c1ccc(Cl)cc1)NC(=S)Nc1ccc(N2CCOCC2)c(Cl)c1	2.0
CC(C)c1ccc(N(CC(=O)NN=C2CCN(C)CC2)S(=O)(=O)c2ccccc2)cc1	-2.5
CN(C)c1ccc(/C=C/C(=O)c2ccc(C(C)(C)C)cc2)cc1[N+](=O)[O-]	8.0
CC1=C(C#N)C(NC(=O)c2cccc(Cl)c2)(C(F)(F)F)C(=O)N1 (stereo not given)	11.6
CN(/N=C/c1ccc(O)cc1O)c1nc(-c2ccccc2)cc(-c2ccccc2)n1	11.2
COc1ccc(CC2(CO)CCN(Cc3cccn3-c3ccccn3)CC2)cc1	2.3
O=C(N=C1N=C2C=CC=CN2Cc2ccccc21)c1ccc(S(=O)(=O)N2CCCC2)cc1	11.2
CC1CCCCN1C(=O)CN1CCC(c2nc3ccc(Cl)cc3[nH]2)CC1 (stereo not given)	16.6
CCOC(=O)c1cc(N)cc([N+](=O)[O-])c1	3.4
C=CCOc1c(CNc2ncn[nH]2)cccc1OCC	7.5
Cc1ccc(NS(=O)(=O)c2cccc(C(=O)N/N=C/c3c(C)nn(-c4ccccc4)c3N3CCCC3)c2)c(C)c1	14.8
O=C(/C=C/c1cccs1)Nc1nncs1	17.0

Taken from above.
`CCOC(=O)c1cc(N)cc([N+](=O)[O-])c1` in Biofilm kill mix: 3.4
`CC1(C)CC(Cc2nc(=S)[nH][nH]2)C(=O)O1` (stereo not given) in Biofilm kill mix: 17.0

Next entries:
SMILES	Biofilm kill mix
Cc1ccc2nc(Nc3nc(CSc4nnc(C)s4)cc(=O)[nH]3)nc(C)c2c1	18.2
Clc1cccc(CN2CCCCCCC2)c1Cl	10.3
CC1CCN(c2c(NCc3ccc(C(=O)NCc4ccco4)cc3)c(=O)c2=O)CC1	12.5
COC(=O)NNC(=S)NCc1ccccc1	13.1
CCn1c(SCC(=O)N/N=C(\C)c2ccncc2)nnc1-c1ccc(C)cc1	13.6
CN(C(=O)CCCN1C(=O)c2cccc3cccc(c23)C1=O)c1ccccc1	6.4
O=C(O)c1ccccc1-c1ccccc1C(=O)NCc1cccc(C(F)(F)F)c1	3.8
